Screens as filed in PubChem BioAssay.
Choline anaer gr: growth inhibitors of anaerobic choline-fed gram-negatives, minimal medium, absorbance | 55,000 tested, 0.2% active | calls only | Gram-negative bacterium anaerobic choline minimal medium; hits give low values; many inactives read as strong as hits in the columns shown;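 active = growth z-score on choline under -2 at 7 or 20 h with little or no fall on glycerol, limits in tiers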;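 note: stock transfer was 300 nL into about 50 µL; the organism is E. coli; final concentration not given here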
Choline anaer gr early: second read-out of Choline anaer gr, no call of its own (marks repeat the call); z-score; measured here: choline growth z-score, timepoint 1;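 score of optical density at 7 h as mean of two plates; lower means less growth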
* = called active by the depositor; i = inactive; & = joins results of further samples. Some of the compounds tested; rates above refer to the full screens.

SMILES | Choline anaer gr | Choline anaer gr early
CCOc1ccc(-n2nnc3c(N4CCN(C(=O)C(C)Oc5ccccc5)CC4)ncnc32)cc1 (stereo unspecified) | i | 1.1
Cc1nn(-c2cc(N3CCOCC3)ncn2)c(C)c1CCC(=O)NC1CCCCC1 | i | 0.04
CCc1ccccc1NC(c1ccccn1)c1ccc2cccnc2c1O (stereo unspecified) | i | 0.35
CC1CN(C(=O)C2CC2)c2ccccc2O1 (stereo unspecified) | i | -0.9
O=S(=O)(Cc1nc(-c2ccc3c(c2)OCO3)no1)c1ccc(Cl)cc1 | i | 0.95
COc1ccc2[nH]cc(CCNC(=O)c3cccc(NC(=O)c4nnc(CC(C)C)s4)c3)c2c1 | i | 0.32
COc1ccc(NC(=O)N(Cc2nnc3n2CCCCC3)c2ccc(C)c(Cl)c2)cc1 | i | -0.27
O=S(=O)(c1cccc(-c2nc(-c3ccccc3)no2)c1)N1CCOCC1 | i | -0.34
Cc1cc(OCc2ccccc2)nc2c1c(C)nn2C | i | -0.37
CCCc1ccc(S(=O)(=O)Nc2ccc3nnc(-c4cccc(C)c4)n3n2)cc1 | i | 0.16
O=C(NCCCN1CCC(Cc2ccccc2)CC1)c1csc2c1CCCCC2 | i | 0.3
CCOc1ccc(C2c3cccn3-c3sc4c(c3CN2C(=O)NCCC(=O)OC)CCCC4)cc1 (stereo unspecified) | i | 0.77
CCn1nc(CO)c2c1CCN(Cc1scnc1C)C2 | i | -0.43
Cc1nc2sccn2c(=O)c1NC(=O)CC(c1ccccc1)c1ccccc1 | i | 0.13
CCC(C)NC(=O)CCCc1nnc(C(=O)Nc2ccc(OC)cc2)s1 (stereo unspecified) | i | -0.99
CCCNCc1cc(=O)n2[nH]c(NCc3ccc(C(C)C)cc3)nc2n1 | i | 0.17
Cc1ccc(S(=O)(=O)N2CCC(c3noc(-c4cccc(F)c4)n3)CC2)cc1C | i | -0.41
Cc1nc2cc(-c3noc(C4CCCC4)n3)ccc2n(C2CCCC2)c1=O | i | 0.85
O=C(Nc1cccc(Cl)c1)c1nnc(COCC(=O)N2CCN(c3ccccc3)CC2)s1 | i | 0.18
O=C(c1cnc2ccc(F)cc2c1S(=O)(=O)c1ccc(Br)cc1)N1CCCC1 | i | -1.4
O=C(C1CCCC1)N1CCN(Cc2noc(-c3ccccc3)n2)CC1 | i | 0.1
CC(C)c1ccc2c(c1)-c1ccccc1S(=O)(=O)N2CC(=O)Nc1ccc2c(c1)n(C)c(=O)n2C | i | 0.44
CN1CCN(Cc2cc(=O)n3[nH]c(-c4ccccc4)nc3n2)CC1 | i | -1.2
O=C(Nc1cccc(Cl)c1)c1nc2nc(-c3ccc(F)cc3)cc(C(F)(F)F)n2n1 | i | 0.54
O=C(NCCCN1CCN(c2ccccc2)CC1)C1CCCN(c2nc3cccnc3s2)C1 (stereo unspecified) | i | -0.68
O=c1ccc2c(OCCCCc3ccccc3)c3ccoc3cc2o1 | i | 0.35
CN(C)C(=O)c1cc(NC(=O)c2ccc(F)cc2)cnc1N1CCNCC1 | i | 0.51
CC1Oc2ccc(S(=O)(=O)N3CCN(C(=O)Nc4ccc(F)cc4)CC3)cc2NC1=O (stereo unspecified) | i | -0.12
CCOC(=O)C1CCN(c2ncc(S(=O)(=O)c3ccc(CC)cc3)c(N)n2)CC1 | i | -2.8
CC(Oc1ccccc1Cl)C(=O)Nc1ccc2c(c1)NC(=O)CO2 (stereo unspecified) | i | 0.29
Cc1cccc(C2C3=C(CC(c4ccccc4O)CC3=O)Nc3onc(C)c32)c1 (stereo unspecified) | i | -0.3
O=C(Nc1ccccc1)c1cnn2c1NC(c1ccccc1)=CC2c1ccc(Br)cc1 (stereo unspecified) | i | -0.33
Cc1cc(S(=O)(=O)[C@H]2CS(=O)(=O)C[C@@H]2NC(C)C)ccc1F | i | 0
O=C(c1cnccn1)N1CCN(c2nc(-c3ccc(Cl)cc3)no2)CC1 | i | 0.04
CC(C)NC(=O)N1CCCC(c2cccc(C(=O)NCCCN3CCCC3=O)c2)C1 (stereo unspecified) | i | -0.33
COc1ccc(NC(=O)n2ncc3cc(Cl)ccc32)cc1 | i | 2
CCSc1nnc(-c2nn(C)c3c2CN(S(=O)(=O)c2cccc(F)c2)CC3)n1CC | i | 0.07
Cc1ccccc1N1CCN(S(=O)(=O)c2ccc(-c3nnc(C4CC4)o3)o2)CC1 | i | 0.42
O=C(CCc1nc(CSc2nc(-c3ccc(F)cc3)cs2)no1)Nc1cc(F)cc(F)c1 | i | -0.34
CC1=C(/C=C/C(=C/C=C/C(C)=C/C(=O)O)c2ccc(C)cc2)C(C)(C)CCC1 | i | -0.21
CCn1nc(C)c2c1c(=O)n(Cc1ccccc1)c(=O)n2CC(=O)N1CCC(C)CC1 | i | -1.8
O=C(NCc1ccccc1F)c1ccc(-n2nc(OCc3cccc(F)c3)ccc2=O)cc1 | i | 0.16
COc1ccc(C2Nc3ccc4ccccc4c3C3=C2C(=O)CCC3)cc1OC (stereo unspecified) | i | -0.29
COc1ccccc1CNC(=O)C1CCCN(C(=O)C2Sc3ccccc3NC2=O)C1 (stereo unspecified) | i | 0.41
COc1cc2c(cc1OC)C1Cc3ccc(OC)c(OC)c3CN1CC2 (stereo unspecified) | i | -2
CCCCCN(c1nc2nc(C)c(Cl)c(C)n2n1)S(=O)(=O)c1ccc(Cl)cc1 | i | 0.41
Cc1oc(-c2ccccc2)nc1Cn1nnc(-c2nc(-c3ccc(F)c(Br)c3)no2)c1C | i | -0.5
CCCSCCCNC(=O)Cn1c(C)nc2onc(C)c2c1=O | i | 0.14
Cc1nc(-c2cc(S(=O)(=O)N3CCC(C(=O)N4CCc5ccccc54)CC3)c(C)s2)no1 | i | 1.2
O=C(Nc1ccc(C2(C(=O)NC3CCCCC3)CC2)cc1)c1cccc(Cl)c1 | i | 0.13
Cc1cc(C)cc(-c2nc(-c3cccnc3)no2)c1 | i | -0.04
CC(C)NC(=O)CCCCn1c(=O)c2ccccc2n(CC(=O)Nc2ccc(Cl)cc2F)c1=O | i | 0.14
CCN1CCN(C(=O)c2sc(-n3nc(C)cc3C)nc2C)CC1 | i | 0.53
O=C(Cc1c[nH]c2ccccc12)NC1CCN(c2nc3ccccc3s2)CC1 | i | 0.03
O=C(COc1ccc(Cl)cc1)N1CCN(Cc2ccc3c(c2)OCO3)CC1 | i | 0.27
CCOc1ccccc1CN1C(=O)c2c(C(=O)OC)ncn2CC1(C)C(=O)NC1CCCC1 (stereo unspecified) | i | 0.08
Cc1nc(N(C)C)cc(N2CCN(C(=O)c3ccccc3Br)CC2)n1 | i | 0.3
COc1ccc(N(Cc2nnc3n2CCCCC3)C(=O)Nc2ccccc2)cc1 | i | 0.1
CCn1c2c(=O)[nH]c(=O)n(C)c2n2c(-c3ccc(Br)cc3)nnc12 | i | 0.07
O=C(CCC1CCCC1)N1CCC(c2nc(-c3ccc(F)cc3)no2)CC1 | i | 0.19
Following part
SMILES | Choline anaer gr | Choline anaer gr early
Cc1ccc(C(C)NC(=O)C2CCCN(c3ccnc(-c4ccc(F)cc4)n3)C2)cc1 (stereo unspecified) | i | 0.58
O=C(COc1ccc(C2Nc3ccccc3S(=O)(=O)N2Cc2ccccc2)cc1)N1CCCCC1 (stereo unspecified) | i | -0.43
O=C1CC2(CCCC2)CC(=O)N1CCNCC1COc2ccccc2O1 (stereo unspecified) | i | 0.49
COc1ccc(N2C(=O)c3cc4occc4n3CC2(C)C(=O)NC2CCCCC2)cc1OC (stereo unspecified) | i | 0.12
O=C(Nc1ccccc1F)c1nnc(C2CCN(C(=O)C3CCC3)CC2)s1 | i | -0.91
Cc1ccc(Nc2nc(=O)[nH]nc2C)cc1C | i | -0.15
O=C(NC1CC1)c1cccc(Nc2ccc(-c3ccccc3)nn2)c1 | i | -0.22
CN1CCN(S(=O)(=O)c2ccc(F)cc2)c2ccccc21 | i | -0.22
CCNS(=O)(=O)c1cc(-c2nc(C)cs2)n(C)c1C | i | -0.21
Cc1ccc(-c2nc(N)n(C(=O)c3ccc(C(C)(C)C)cc3)n2)cc1 | i | 1.2
Cn1ccc2cc(S(=O)(=O)N3CCN(C(=O)Nc4cc(F)ccc4F)CC3)ccc21 | i | -0.22
O=S(=O)(NCCn1cnc2ccccc21)c1ccccc1Br | i | -0.69
CCN(CCCNC(=O)c1cccn2c(=O)c3ccccc3nc12)c1cccc(C)c1 | i | 1.6
Cc1cccc(OCC(=O)Oc2cccc(-n3cnnn3)c2)c1C | i | 1.1
CCC(CO)N1CCn2c(nc3cccc(Cl)c32)C1 (stereo unspecified) | i | 0.23
CCc1nnc2c(C)nc3ccccc3n12 | i | -0.94
Cc1noc2c1C(c1ccc(F)cc1)C1=C(CC(c3ccccc3O)CC1=O)N2 (stereo unspecified) | i | -0.39
O=C(NCCO[N+](=O)[O-])c1cccnc1 | i | 0.64&0.53&0.18&-1.1
COc1cc(OC)c(NC(=O)NCCCn2c(-c3ccc(F)cc3)nc3cccnc32)cc1Cl | i | 0.51
COc1ccccc1NC(=O)Cn1cnc(NC(=O)c2ccccc2)n1 | i | -0.23

Molecules listed so far with bromine, in the order listed:
SMILES | Choline anaer gr | Choline anaer gr early
O=C(c1cnc2ccc(F)cc2c1S(=O)(=O)c1ccc(Br)cc1)N1CCCC1 | i | -1.4
O=C(Nc1ccccc1)c1cnn2c1NC(c1ccccc1)=CC2c1ccc(Br)cc1 (stereo unspecified) | i | -0.33
Cc1oc(-c2ccccc2)nc1Cn1nnc(-c2nc(-c3ccc(F)c(Br)c3)no2)c1C | i | -0.5
Cc1nc(N(C)C)cc(N2CCN(C(=O)c3ccccc3Br)CC2)n1 | i | 0.3
CCn1c2c(=O)[nH]c(=O)n(C)c2n2c(-c3ccc(Br)cc3)nnc12 | i | 0.07
O=S(=O)(NCCn1cnc2ccccc21)c1ccccc1Br | i | -0.69

More compounds.
SMILES | Choline anaer gr | Choline anaer gr early
O=C(Cn1ncc2c1-c1ccccc1OC2)Nc1cc(-c2cccc(Cl)c2)no1 | i | 0.22
COc1ccc(-c2nc(Cn3c(=O)c4c(C)cc(C)nc4n(-c4ccccc4)c3=O)c(C)o2)cc1 | i | 0.34
COc1cc2c(=O)n(Cc3ccc(C(=O)NC4CC4)cc3)c(=O)n(Cc3ccccc3)c2cc1OC | i | 0.14
CCN(CC)C(=O)CSc1nnc2c3ccccc3nc(-c3ccc(C)cc3)n12 | i | -0.5
O=C(Cn1c2ncccc2c(=O)n1-c1ccccc1)Nc1ccc(F)c(F)c1 | i | -0.95
CC(=O)N1CCC(CC(=O)N(C)CC2(C)CCOCC2)CC1 | i | -0.49
CCOC(=O)c1cc(S(=O)(=O)N(C)CC(=O)NC2CCCCC2)cn1C | i | -0.53
Cc1cc2nc(CSc3nnc(NC(=O)CCC4CCCC4)s3)cc(=O)n2o1 | i | 1.3
O=C(Oc1cccc(-n2cnnn2)c1)c1ccccc1Br | i | -0.67
CCN(CC)S(=O)(=O)c1cc(-c2ccc(=O)[nH]n2)ccc1Cl | i | -0.36
Cn1c(=O)cc(OCC(=O)N2CCN(c3ccccn3)CC2)c2ccccc21 | i | 0.9
CC1CN(c2ccc(Cl)cc2)c2nc3c(c(=O)n(CCN4CCOCC4)c(=O)n3C)n2C1 (stereo unspecified) | i | -0.55
CCCCNC(=O)Cc1csc(NC(=O)c2ccccc2)n1 | i | -1.1
CC(C)c1ccc(-c2nn3c(=O)c(NC(=O)c4ccccc4Cl)cnc3o2)cc1 | i | 1.7
CCCCC/C=C/C=C1/C=CC(=O)[C@@H]1C/C=C\CCCC(=O)O | i | 1.5
CCCCOc1ccc(S(=O)(=O)NCc2cn3ccsc3n2)cc1 | i | 1.1
Nc1nc2c(ncn2COCCO)c(=O)[nH]1 | i | 0.8&0.4&-3.6&0.87
CC(=O)N1CCC(C(=O)Nc2cc(-c3nnc(C4CC4)o3)sc2C)CC1 | i | -0.18
CCNc1cc(C)nc(N2CCN(C(C)=O)CC2)n1 | i | -1.1
Cc1nnc(NC(=O)CCc2nc(CSc3nc4ccccc4[nH]3)no2)s1 | i | -1.1
COc1ccc(C2C=C(c3ccccc3)Nc3nc(NS(=O)(=O)c4ccccc4)nn32)cc1 (stereo unspecified) | i | -0.02
CCOC(=O)CSc1nnc2c3ccccc3nc(-c3ccc(OC)cc3)n12 | i | -0.46
CCCc1nnc2sc(-c3cc(CC(C)C)[nH]n3)nn12 | i | 1.1
COc1ccc(NC(=O)Cn2ncn3nc4c(c3c2=O)CCCC4)cc1OC | i | 0.33
COc1ccc(OC)c(NC(=O)CN2C(=O)c3ccccc3S2(=O)=O)c1 | i | 0.89
CC(C)(C)C1CCc2c(sc3nc(CCC(=O)NC4CCCC4)[nH]c(=O)c23)C1 (stereo unspecified) | i | 0.68
COC(=O)c1cccc(NC(=O)C2=Cc3cc(C)ccc3OC=C2)c1 | i | 2
CCc1ccc(-c2ccc(=O)[nH]n2)cc1S(=O)(=O)Nc1ccc(C)c(C)c1 | i | 0.11
O=c1n(Cc2ccc(Cl)cc2)nc2c(S(=O)(=O)N3CCCCCC3)cccn12 | i | 1.4

Sorted by count of non-hydrogen atoms (smallest number first): 3 of the compounds above.
SMILES | Choline anaer gr | Choline anaer gr early
CCCc1nnc2sc(-c3cc(CC(C)C)[nH]n3)nn12 | i | 1.1
CCc1ccc(-c2ccc(=O)[nH]n2)cc1S(=O)(=O)Nc1ccc(C)c(C)c1 | i | 0.11
O=c1n(Cc2ccc(Cl)cc2)nc2c(S(=O)(=O)N3CCCCCC3)cccn12 | i | 1.4

Single records, from the list above:
`COC(=O)c1cccc(NC(=O)C2=Cc3cc(C)ccc3OC=C2)c1` as listed: Choline anaer gr: i; Choline anaer gr early: 2
`COc1ccc(C2C=C(c3ccccc3)Nc3nc(NS(=O)(=O)c4ccccc4)nn32)cc1` (stereo unspecified) as listed: Choline anaer gr: i; Choline anaer gr early: -0.02
`CC(C)(C)C1CCc2c(sc3nc(CCC(=O)NC4CCCC4)[nH]c(=O)c23)C1` (stereo unspecified) as listed: Choline anaer gr: i; Choline anaer gr early: 0.68
